Assay outcomes from PubChem BioAssay.
gsp antag: qHTS for Antagonists of gsp, the Etiologic Mutation Responsible for Fibrous Dysplasia/McCune-Albright Syndrome: qHTS. gsp-mutant cells, cAMP HTRF, 30 min; control for the full effect not named in the record. Potency, µM (titrated, usually from 76.9 µM), for the others: top-dose activity change, negative = inhibition, hits mostly inhibitors. hit rate 0.4% among 340,000; active = falling curve of any shape with a large fitted effect; inconclusive = falling curve, mostly with a smaller effect; inactive = flat or rising curve; cell line not stated here;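 also: intracellular cAMP measured with PDE inhibitor Ro 20-1724 present during compound exposure; potency is read from the fitted curve at half-maximal effect; % is scaled to controls: 0 for no effect and ±100 for the full control effect; nearly all actives have a fitted effect of over 65% in size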
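HTRF cAMP read-out (cAMP-d2 plus anti-cAMP antibody-K in lysis buffer, 30 min RT). Before lysis, cells are exposed to compounds with […] for 30 min at 37C in DPBS containing Ca/Mg, BSA and Tween 20.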
TRPML1 blocker: qHTS for Inhibitors of the Human Mucolipin Transient Receptor Potential 1 (TRPML1) | TRPML1-inducible cells, Ca2+ dye fluorescence, FDSS; stronger effect = lower value; inhibition of EC80 agonist-evoked calcium signal | activity change, negative = inhibition, % (concentration not given with the values) | AID 624415, 2012 | Mucolipin-1 (Homo sapiens), Q9GZU1 | hit rate 0.02% among 390,000; in the data active means activity change below about -50%; inconclusive means about -30% to -50%; inactive means above about -30%;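 also: stimulus is agonist 54-4 at its EC80 concentration; % is scaled to controls: 0 for no effect and ±100 for the full control effect; compound concentration not given in the record; the text of the record puts the active cut at -80%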
Target sequence (Q9GZU1 whole entry, looked up): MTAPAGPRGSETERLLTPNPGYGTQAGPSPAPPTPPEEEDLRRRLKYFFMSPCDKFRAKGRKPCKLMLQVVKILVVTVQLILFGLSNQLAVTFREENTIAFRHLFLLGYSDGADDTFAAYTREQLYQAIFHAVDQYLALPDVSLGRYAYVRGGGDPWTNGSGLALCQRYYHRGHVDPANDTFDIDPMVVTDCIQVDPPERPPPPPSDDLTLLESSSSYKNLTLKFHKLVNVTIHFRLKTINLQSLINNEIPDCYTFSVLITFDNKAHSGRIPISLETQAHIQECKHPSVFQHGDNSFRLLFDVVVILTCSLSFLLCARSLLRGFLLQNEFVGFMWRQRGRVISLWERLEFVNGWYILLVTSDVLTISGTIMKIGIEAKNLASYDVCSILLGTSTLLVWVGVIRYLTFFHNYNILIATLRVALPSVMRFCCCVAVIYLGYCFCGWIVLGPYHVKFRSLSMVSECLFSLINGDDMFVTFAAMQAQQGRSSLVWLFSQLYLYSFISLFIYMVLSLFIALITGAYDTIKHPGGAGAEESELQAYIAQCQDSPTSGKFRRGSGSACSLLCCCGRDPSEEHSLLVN
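Calcium fluorescence in TRPML1-DL cells induced overnight with Tet: a 110 s read after compound pin addition, then a 110 s antagonist read after challenge with 54-4 at 4 uM final (EC80).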
ClpP mod: qHTS Assay for Activators of ClpP | purified B. subtilis ClpP, FRET peptide cleavage, 20 min | ATP-dependent Clp protease proteolytic subunit (Bacillus subtilis (strain 168)), P80244 | Potency, µM (series often up to 57.5 µM), inactives show at the highest dose activity change, negative = active | hit rate 1.9% among 340,000; active = well fitted falling curve with a large enough effect; inconclusive = small, poorly fitted or top-dose-only effect; inactive = no such curve, though single readings can be large or run the other way; also: potency is read from the fitted curve at half-maximal effect; the source files actives as falling curves though it sought activators and does not explain the sign; nearly all actives have a fitted effect of over 65% in size; many hits overshoot -100%
Target sequence (P80244 whole entry, looked up): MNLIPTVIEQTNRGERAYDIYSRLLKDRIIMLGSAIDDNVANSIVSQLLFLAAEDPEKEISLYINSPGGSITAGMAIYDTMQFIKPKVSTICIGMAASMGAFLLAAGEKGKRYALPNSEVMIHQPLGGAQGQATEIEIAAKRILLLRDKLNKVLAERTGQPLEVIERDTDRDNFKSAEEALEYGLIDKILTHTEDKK
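FRET quenching reversal measured ClpP activation: 10 microg/mL B. subtilis ClpP at pH 8 with the FRET-FV decapeptide, read at 430 nm after 320 nm excitation. The 20-min minus 0-min signal was scaled between DMSO/no-enzyme wells and ADEP (5.8 microM final).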
Menin-MLL FL inh: qHTS Assay for Inhibitors Targeting the Menin-MLL Interaction in MLL Related Leukemias: Competition With Fluorescein Labeled MLL-derived Peptide | Fluorescence polarization, fluorescein-MLL peptide displacement from menin | FP activity change, % at 61.4 µM | 290,000 tested, under 10 active | AID 1766, 2009; inconclusive = falling polarisation curve, or a change in total fluorescence; inactive = total fluorescence flat and polarisation flat or rising; no compound was filed as active; the % refers to the polarisation; negative = inhibition;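 also: % of control where 0% means no effect; inhibitors lower the polarisation; unlabelled MLL peptide was the positive control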
TRPML1 ag: qHTS for Agonists of the Human Mucolipin Transient Receptor Potential 1 (TRPML1) | TRPML1-expressing cells, Ca2+ dye fluorescence, FDSS; host cell line not named in the record; reference of the full effect not given here | Mucolipin-1 (Homo sapiens), Q9GZU1 | hit rate 0.12% among 410,000 | AID 624414, 2012 | activation, % (test concentration not listed); in the data active = activation above about 50%; inconclusive = about 30% to 50%; inactive = below about 30%; also: 0% is about no effect; the text of the record puts the active cut at 80%
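Cells: TRPML1-DL, 1X Tet inducer, ~16 h at 37 degrees C/5% CO2. Dye: ABD Ca8 no-wash + quencher, 45-90 min RT. Read: 10 s baseline, compound add, 110 s agonist phase; 54-4 EC80 (4uM final), 110 s antagonist phase.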
gsp ag: qHTS for Agonist of gsp, the Etiologic Mutation Responsible for Fibrous Dysplasia/McCune-Albright Syndrome: qHTS; gsp mutant cells, cAMP HTRF, 30 min; control for the full effect not named in the record; Potency, µM (doses to about 76.9 µM), for inactives: top-dose activation (cAMP increase), usual class: activators; hit rate 0.13% among 340,000; AID 624287, 2012; active = well fitted activation curve with a large enough effect; inconclusive = small, poorly fitted or top-dose-only effect, or another doubt; inactive = no such curve, though single readings can be large or run the other way; cell line not stated here;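 also: phosphodiesterase inhibitor Ro 20-1724 added with compounds to block cAMP breakdown; potency is read from the fitted curve at half-maximal effect; nearly all actives have a fitted effect of over 60% in size; about a fifth of the inactives were tested at one dose only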
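Cells stably selected in G418 were plated at 2000/well, grown 16-24 hr, then given compounds in DMSO with the PDE inhibitor […] (300 uM solution added) for 30 min at 37C; cAMP was read by HTRF.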
The depositor's hits bear a star; ? = inconclusive; · = not tested or not shown; & = joins results of further samples; [ ] = another dose, or the depositor's remark.

nr	SMILES	gsp ag	gsp antag	TRPML1 blocker	TRPML1 ag	Menin-MLL FL inh	ClpP mod
1	CC(=O)c1ccc(NC(=O)C2C3CCC(C3)C2C(=O)O)cc1 (configuration not stated)	-56%[inhibitor]	1%	12	0.2	0.9	·
2	COc1ccc(Cl)cc1NC(=O)c1cnc2sc(N3CCOCC3)nn2c1=O	·	·	-2	0.9	·	1.4%
3	O=C(CSc1nc2ccc(Cl)cc2[nH]1)c1c[nH]c2ccccc12	-43%[inhibitor]	-9%	-9	0.2	6.9	·
4	CCCCCCc1cc2cc(S(=O)(=O)c3ccc(F)c(Cl)c3)c(=O)oc2cc1O	4%	?	-1	24	?	62%
5	Cc1c(N2C(=O)CSC2c2ccccc2)c(=O)n(-c2ccccc2)n1C (configuration not stated)	-5%[15.4 µM]	15%	-7	0.0	-0.6	1.3%
6	COc1ccc(S(=O)(=O)/N=C2/C=CC(=O)C(C)=C2C)cc1	-6%	-1%	-10	0.6	2.7	0.3%
7	Nc1cc(=O)[nH]c(SCC(=O)N2CCN(S(=O)(=O)c3ccc4ccccc4c3)CC2)n1	3%[15.4 µM]	15%	3	-0.4	3.2	·
8	CCCCCCCCCCCCCCCCn1cc[n+](CC(C)=O)c1	-6%	7%	-6	0.2	-7.5	0.9%
9	Oc1ccccc1-c1nc2ccc(Cl)cn2c1Nc1ccc2c(c1)OCCO2	·	·	8	1.3	·	-1.6%
10	Cc1nc(-c2ccccc2)nc2[nH]ccc(=O)c12	23%	4%	-9	-0.5	1.5	1.1%
11	O=C(c1cccc(S(=O)(=O)N2CCCC2)c1)N1CCCC(C(F)(F)F)C1 (configuration not stated)	4%	8%	19	-1.1	·	28µM*
12	Cc1ccc(SCCN2C(=O)NC(C)(C)C2=O)cc1	-60%[inhibitor]	4%	21	-0.4	-1.0	-1.8%
13	CS(=O)(=O)c1ccc(Cl)c(NC(=O)CCc2ccccc2)c1	-14%[15.4 µM]	9%	1	-0.8	1.3	·
14	CCOC(=O)CCCCC(=O)c1[nH]c(=O)[nH]c1CSc1nc(-c2ccccc2)c(C#N)c(=O)[nH]1	20%	-6%	-1	-0.1	0.2	-3.0%
15	COc1ccc(S(=O)(=O)N2CCOCC2)cc1NC(=O)CCNC(=O)c1ccc([N+](=O)[O-])cc1	0%	4%	8	0.2	·	-0.7%
16	CCOc1ccc(NC(=O)c2c(NCc3ccc(C)o3)sc3c2CCCCC3)cc1	·	·	6	-1.1	·	-0.4%
17	CC(=O)c1cccc(NC(=O)C(C)N(C)CC(=O)Nc2ccc(Cl)cc2)c1 (configuration not stated)	-29%[15.4 µM]	-10%	-6	0.4	-1.2	·
18	CCN(CC)C(=O)CSc1nc2ccsc2c(=O)n1CCCC(=O)NCCc1ccc(S(N)(=O)=O)cc1	?	-2%	-19	0.6	-7.1	-0.5%
19	CN(CC(=O)N1CCN(c2ccccc2)CC1)S(=O)(=O)c1cnc[nH]1	-1%	9%	7	0.7	0.6	-0.1%
20	CCc1ccc(S(=O)(=O)NCCc2cn3ccsc3n2)cc1	·	·	-2	-0.2	·	-1.0%
21	Cn1c(=O)c2[nH]c(C(O)c3ccc(Cl)cc3)nc2n(C)c1=O (configuration not stated)	41%	-13%	12	1.5	·	-3.8%
22	CCOc1ccccc1C(=O)N(Cc1ccco1)Cc1ccccc1F	·	·	28	2.1	·	0.0%
23	Cc1ccn2cc(-c3cccc(S(=O)(=O)N4CC(C)OC(C)C4)c3)nc2c1 (configuration not stated)	-1%	-7%	-26	1.8	-4.2	-17%
24	COc1cc(NS(=O)(=O)c2ccc(NS(=O)(=O)c3ccc(C)cc3)cc2)nc(OC)n1	22%[15.4 µM]	?	5	1.0	·	·
25	CCc1ccc(Cn2nnc(C(=O)Nc3ccc(OC)cc3OC)c2N)cc1	-23%	6%	1	11	1.9	4.2%

More compounds.
nr	SMILES	gsp ag	gsp antag	TRPML1 blocker	TRPML1 ag	Menin-MLL FL inh	ClpP mod
26	Cc1ccccc1Nc1c(-c2ccc(Cl)s2)nc2cccc(C)n12	·	·	8	-0.2	·	4.2%
27	O=C(NCCCn1ccnc1)c1c(F)cccc1F	27%	16%	0	-0.3	·	-1.2%
28	C=CCOc1ccc(CNn2cn[nH]c2=S)cc1OCC	11%	-4%	-8	0.2	2.5	0.8%
29	COc1cc(NC(=O)c2noc(C)c2[N+](=O)[O-])c(OC)cc1Cl	2%	-23%	-10	1.8	·	3.0%
30	O=C(O)C[C@H]1c2ccccc2S(=O)(=O)N1C1CCCC1	·	6%	-8	1.2&0.0	·	-1.3%&0.0%
31	O=C(C1=C[C@H](c2csc3ccccc23)C[C@H](OCCCCO)O1)N1CCOCC1	23%	-3%	-15	-0.3	-0.1	-9.1%
32	C[C@H](CO)N1C[C@H](C)[C@@H](CN(C)S(=O)(=O)c2ccc(-n3cccn3)cc2)OCc2cnnn2CCCC1=O	-36%[inhibitor]	·	-10	-0.2	·	-0.6%
33	Cc1ccc(Oc2ncnc(N)c2[N+](=O)[O-])cc1C	24%	6%	-8	0.4	-0.7	0.2%
34	Cc1ccc(SCC(=O)Nc2ccc(-c3nnc(-c4ccco4)o3)cc2)cc1	2%	0%	-2	0.9	3.3	?
35	CN(/N=C/c1ccccc1)C(=S)c1ccccc1	-15%	3%	4	1.7	·	-1.2%
36	O=C(COC(=O)c1c2c(nc3ccccc13)CCCCC2)NCc1ccc2c(c1)OCO2	22%[15.4 µM]	-25%	-10	0.3	5.3	-4.8%
37	O=C(c1ccc([N+](=O)[O-])o1)N1CCN(Cc2ccccc2)CC1	-1%	7%	-5	-0.6	-3.0	-0.4%
38	CC(=O)NCCNc1ccc([N+](=O)[O-])cc1C#N	12%	10%	4	-0.2	-9.0	·
39	Cc1ccc(NCc2n[nH]c(=S)n2Cc2ccccc2)cc1Cl	-5%	-8%	-5	0.5	1.9	-2.2%
40	CCOc1c(Br)cc(/C=N\NC(=O)c2ccccc2)cc1OC	-16%[15.4 µM]	-3%	58	0.4	7.3	·
41	CCOC(=O)c1ccc(-c2cccc(C(F)(F)F)c2)nc1C	?	?	48	-1.0	5.2	-0.5%
42	COC(=O)C1=C(CS(=O)(=O)c2ccc(C)cc2)NC(=O)NC1c1ccc(OC)c(OC)c1 (configuration not stated)	14%	16%	22	-0.3	-7.5	-3.9%
43	COc1ccc(OCC(=O)N/N=C/C2CC=CCC2)cc1 (configuration not stated)	6%	-3%	2	1.4	-0.9	-4.3%
44	Cc1nn(C)c(C(=O)NNC(=S)NCc2ccco2)c1Br	-76%[inhibitor]	-3%	9	1.1	4.8	-2.9%
45	CCOC(=O)c1c(NC(=O)c2noc(C)c2[N+](=O)[O-])sc(C(C)=O)c1C	-22%	-6%	22	-0.7	1.9	·
46	CC(=O)N1CCCN(C(=O)c2cc(COc3c(F)cccc3F)on2)CC1	7%	4%	41	-0.3	·	-29%
47	CC(CCc1ccccc1)NC(=O)COC(=O)C1=COCCO1 (configuration not stated)	-6%	18%	-1	-1.5	-1.5	1.1%
48	CCOC(=O)c1ccccc1NC(=O)Cn1cnc2c(cnn2C(C)(C)C)c1=O	-38%[inhibitor]	-2%	-23	-1.9	0.2	-19%
49	O=C(NCC1CCOCC1)c1ccc2nc(Cc3cccc(Cl)c3)oc2c1	-61%[inhibitor]	1%	66	3.5	·	0.2%
50	Cc1ccccc1C(=O)N(C)[C@H]1C[C@H]2c3[nH]c4ccccc4c3CCN2C(=O)[C@H]1[C@H](C)O	?	·	10	-0.2	·	-5.2%

(next part)
nr	SMILES	gsp ag	gsp antag	TRPML1 blocker	TRPML1 ag	Menin-MLL FL inh	ClpP mod
51	Cc1ccc(Nc2nnc(-c3ccccc3N)o2)cc1C	?	2%	-5	-0.8	-2.9	·
52	O=C(NCCc1ccco1)c1nn(Cc2ccccc2)c(=O)c2ccccc12	9%	-18%	5	7.4	0.0	1.7%
53	c1ccc(NC2=NCCN2CC2CCCC2)cc1	-15%	6%	2	0.8	-7.1	-0.6%
54	Cc1ccc(OCC(O)CN2CCN(Cc3ccc4c(c3)OCO4)CC2)cc1C (configuration not stated)	0%	10%	20	-0.3	0.0	1.1%
55	O=C(NCc1ccc(Cl)cc1)c1noc2c1CCCCC2	?	3%	-27	-0.3	3.2	-2.9%
56	Cc1cccc(-c2noc(-c3ccc(NCc4cccnc4)c([N+](=O)[O-])c3)n2)c1	·	·	-18	-0.3	·	-0.5%
57	CC(C)Cc1csc(NC(=O)c2ccc(Br)cc2)c1C(=O)O	-26%	-5%	-17	0.8	-1.4	-0.8%
58	Cc1ccccc1OCc1nc2ccc(S(=O)(=O)N3CCOCC3)cc2[nH]1	?	1%	5	-0.8	-1.8	-29%
59	O=C(CSc1nccc(=O)[nH]1)Nc1ccc(F)c(Cl)c1	-32%[inhibitor]	-1%	-2	-0.6	5.0	-1.0%
60	COc1ccc(S(=O)(=O)N2CCC(C(=O)NCCC(=O)NCc3ccncc3)CC2)cc1	-2%	22%	-5	-0.4	·	-0.7%
61	COC(=O)Nc1nnc(/C=C/c2ccc(OC)cc2)s1	1%	-6%	-9	-0.5	0.0	22µM*
62	COc1cc(OC)c(C2N(c3ccc(Cl)cc3)C(=O)C3CCCN32)cc1OC (configuration not stated)	-1%	6%	-3	0.2	5.5	-2.6%
63	COc1ccc(NC(=O)Cc2nnc(SCC(=O)c3ccc(F)cc3)n2C)cc1	-36%[inhibitor]	-1%	-14	1.1	5.9	·
64	COc1ccc(CC(=O)NCc2ccccc2Cl)cc1S(=O)(=O)N1CCOCC1	-27%	-6%	3	-1.1	-0.3	-0.1%
65	COc1cc2oc3ccccc3c2cc1N(CC(=O)N(C)C)S(=O)(=O)c1ccc(C)cc1	-22%	0%	28	-0.7	1.8	0.9%
66	CN(C)c1ccc(CNC(=O)C(Cc2ccccc2)NS(=O)(=O)c2ccc3c(c2)oc(=O)n3C)cc1 (configuration not stated)	·	·	-11	0.7	·	1.5%

Outcome played no part in choosing rows; 2.1% or so of the library scored in one or more.
